CDC25B-CDK2 inh: human CDC25B-CDK2/CyclinA binding inhibition. P30305+P24941. z-score (concentration not given with the values). 0.72% of 94,000 active. HTRF CDC25B-CDK2/CyclinA binding, anti-His/anti-Flag; hits give high values. AID 1259370;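 further: score is relative to mean and SD of negative controls; strong numbers were not always called active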
TAR Tat displ: HIV-1 TAR-Tat binding disruption | z-score (test concentration not listed) | AID 1259389 | 0.6% of 100,000 active | HIV-1 TAR RNA, Tat peptide displacement FRET; hits give high values;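 further: score is relative to mean and SD of negative controls; some compounds called inactive have numbers as strong as hits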
Numbers without * were called inactive; x = no result given.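 How the source made its calls: active means z-score from 3 up in half or more of its runs; inactive means the rest.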

SMILES	CDC25B-CDK2 inh	TAR Tat displ
CCCOc1ccc(C2CC(=O)Nc3c2c(C)nn3-c2ccc3nnc(C)n3n2)cc1 (stereo not drawn)	x	1.1
O=C(Cn1c(=O)oc2cc(S(=O)(=O)N3CCCC3)ccc21)N1CCOCC1	-0.2	x
CCCCCn1c(=O)[nH]c2cc(C(=O)O)ccc2c1=O	-0.6	-0.84
O=S(=O)(c1ccc(F)cc1F)n1nccc1-c1ccc(-c2ccc(F)cc2F)o1	-1.8	x
O=C(c1ccc2c(c1)nc1n2CCOC1)N1CCN(C2CCCCC2)CC1	x	0.71
O=C1CCCc2c1[nH]c1cc3c(cc21)OCCO3	-2.4	x
CC1(C)CC(=O)N(CC(=O)NCc2cccs2)c2ccccc2S1	-1.7	x
Fc1ccc(CNc2n[nH]c(-c3ccco3)n2)cc1	-2	0.91
CCCc1nn2c(=O)cc(CSc3nnc(NC(=O)C(C)C)s3)nc2s1	x	0.72
O=C(Cn1c(=O)oc2ccccc21)N(CCN1CCOCC1)Cc1ccco1	x	0.19
COc1cc(Nc2c(-c3cc(C)c(C)cc3C)c(=O)c2=O)cc(OC)c1	x	-0.65
CCN(CC)c1ccc(NC(=O)CSc2nc(-c3ccco3)cc(C(F)(F)F)n2)cc1	2.1	0.5
c1ccc(CC2CCN(C3=NCCN3)CC2)cc1	-1.1	-0.28
CCOC(=O)c1ccc2ncc(C(=O)OCC)c(Nc3ccc(C)cc3C)c2c1	0.64	x
COc1cn(CC(=O)NC(C)(C)C)c(CSc2ccccc2)cc1=O	x	0.66
CCSC1=C(C#N)C(=O)NC(c2ccccc2O)S1 (stereo not drawn)	-0.21	0.18
CN1C(=O)Cc2cc(S(=O)(=O)CCC(=O)NCCC3=CCCCC3)ccc21	x	-0.34
CCC(C)NC(=O)CCCN1C(=O)CCn2nc(-c3cccn3C)cc21 (stereo not drawn)	x	-2.2
Cc1ccc(C)c(N2CCN(C(=O)c3cccn4c(=O)c5cc(Br)ccc5nc34)CC2)c1	x	1.4
CCCCNC(=O)c1noc2c1CCc1sccc1-2	x	0.53
O=C(NC1CCCC1)C1Cc2ccccc2N1C(=O)c1ccccc1 (stereo not drawn)	x	0.14
Cc1ccc(-c2noc(C3CCCN(S(=O)(=O)c4ccc(Br)cc4)C3)n2)cc1 (stereo not drawn)	x	1.3
O=c1cc(COc2ccc(Cl)cc2)nc2scc(-c3ccccc3)n12	-1.7	2.9
CC1CCCCC1NC(=O)C1(C)Cn2c(cc3sccc32)C(=O)N1Cc1cccs1 (stereo not drawn)	-0.72	2
CN1C=C(C(=O)N2CCOCC2)Sc2ccccc21	x	0.24
O=C(NCc1ccccc1)NC(c1ccccc1)c1nnc(-c2ccc(Cl)cc2)o1 (stereo not drawn)	x	0.64
Cc1ccc(C(CNC(=O)c2ccco2)N2CCCC2)o1 (stereo not drawn)	-1.5	1
CCc1c(C)nc2ncnn2c1N1CCN(c2cc(C)ccc2C)CC1	-2.3	1.8
O=C(Cn1c(=O)sc2ccccc21)Nc1nc2c(s1)CCCC2	-1.8	x
COc1ccccc1-c1cc(C(F)(F)F)n2ncc(C(=O)OCc3ccc4c(c3)OCO4)c2n1	0.19	1.5
COc1ccc2cc3c(nc2c1)N(C(=O)c1ccc(F)cc1)CC3	0.03	-0.35
CCOc1ccc(-c2noc(CSc3nnc(-c4ccncc4)n3-c3ccccc3)n2)cc1	-0.35	0.15
CC(C)(C)c1ccc(/C(N)=N/OC(=O)CCSc2cccs2)cc1	-3.2	x
Cc1ccc(-c2noc3ncnc(Nc4cccc(C)c4)c23)cc1	x	1.9
CCc1nnc(SCC(=O)Nc2cc(Cl)c(OC)cc2OC)c2cc3sccc3n12	x	1.1
Cc1cc(-c2ccc(S(=O)(=O)Nc3ccc(F)cc3C)cc2)on1	x	0.24
O=C(Nc1cccc(-n2cccc2)c1)Nc1csc2ccccc12	-2.2	x
CC(=O)N1CCN(S(=O)(=O)c2cc3c4c(c2)CCC(=O)N4CCC3)CC1	x	-1.2
O=C(CSc1cc(-c2ccccc2)ncn1)Nc1nc2c(s1)CCCC2	-0.18	0.58
COc1ccccc1OCc1cc(=O)n2oc(C)cc2n1	-1.4	0

Ordered by length of the SMILES (smallest number first): 14 of the compounds above
SMILES	CDC25B-CDK2 inh	TAR Tat displ
CN1C=C(C(=O)N2CCOCC2)Sc2ccccc21	x	0.24
COc1ccccc1OCc1cc(=O)n2oc(C)cc2n1	-1.4	0
Cc1ccc(C(CNC(=O)c2ccco2)N2CCCC2)o1 (stereo not drawn)	-1.5	1
O=C(Nc1cccc(-n2cccc2)c1)Nc1csc2ccccc12	-2.2	x
Cc1ccc(-c2noc3ncnc(Nc4cccc(C)c4)c23)cc1	x	1.9
CCc1c(C)nc2ncnn2c1N1CCN(c2cc(C)ccc2C)CC1	-2.3	1.8
COc1ccc2cc3c(nc2c1)N(C(=O)c1ccc(F)cc1)CC3	0.03	-0.35
CC(C)(C)c1ccc(/C(N)=N/OC(=O)CCSc2cccs2)cc1	-3.2	x
Cc1cc(-c2ccc(S(=O)(=O)Nc3ccc(F)cc3C)cc2)on1	x	0.24
CCc1nnc(SCC(=O)Nc2cc(Cl)c(OC)cc2OC)c2cc3sccc3n12	x	1.1
O=C(NCc1ccccc1)NC(c1ccccc1)c1nnc(-c2ccc(Cl)cc2)o1 (stereo not drawn)	x	0.64
CC1CCCCC1NC(=O)C1(C)Cn2c(cc3sccc32)C(=O)N1Cc1cccs1 (stereo not drawn)	-0.72	2
CCOc1ccc(-c2noc(CSc3nnc(-c4ccncc4)n3-c3ccccc3)n2)cc1	-0.35	0.15
COc1ccccc1-c1cc(C(F)(F)F)n2ncc(C(=O)OCc3ccc4c(c3)OCO4)c2n1	0.19	1.5

Further records.
SMILES	CDC25B-CDK2 inh	TAR Tat displ
N#Cc1c(NC(=O)c2ccc(Cl)cc2)sc2c1CCCC2	-0.94	-0.05
COc1ccc(OC)c(C2CCN(S(=O)(=O)c3ccc(-c4coc(C)n4)cc3)C2)c1 (stereo not drawn)	x	-0.73
CCCCOC(=O)Nc1ccc(N(CC)CC)cc1	-7.4	0.87
CCOC(=O)N1CCN(S(=O)(=O)c2c(C)[nH]c(C)c2C(=O)N2CCCC2)CC1	x	-0.94
Cn1c(N2CCC(C(=O)O)CC2)cc(=O)n(C)c1=O	-0.6	0.24
CCCCOC(=O)C1=C(C)N(C)C(=O)NC1c1ccc(C(=O)OC)cc1 (stereo not drawn)	0.96	x
O=S(=O)(c1cccc2cccnc12)N1CCN(c2cccc(Cl)c2)CC1	-0.4	x
Cc1sc2ncn(CC(=O)NCC(=O)N3CCCCCC3)c(=O)c2c1C	-0.9	x
Cc1cc(NC(=O)c2csc(-c3cc(C)on3)n2)no1	-0.52	x
O=S(=O)(c1ccccc1)N1N=C2CCCCC2C1(O)C(F)(F)F (stereo not drawn)	-0.68	x
CCOC(=O)CSc1nc(-c2cccs2)cn1-c1ccc(C)cc1	-0.8	x
COc1ccc(-c2cccc(NS(=O)(=O)c3cccnc3)c2)nn1	x	-0.15
CCOC(=O)N/N=C/c1cc(C(F)(F)F)cc(C(F)(F)F)c1	0.15	x
Nc1nc(Cc2ccc([N+](=O)[O-])cc2)ns1	-0.4	x
Cn1c(=O)c2c(nc(Sc3ccccc3)n2Cc2ccc(Cl)cc2Cl)n(C)c1=O	-1	x
CCc1ccc(C2CC(c3cccc(C)c3)n3nc(N)nc3N2)cc1 (stereo not drawn)	1.1	0.65
O=C(NCCc1c[nH]c2ccccc12)C(=O)Nc1ccc2c(c1)OCO2	1.5	1.5
CCC(=O)Oc1cc(C)c2sc3ccccc3c(=O)c2c1	0.31	-0.09
Cc1ccc(N2CCn3c2nc2c3c(=O)n(C)c(=O)n2C)cc1C	x	2
Cc1nn(C)c(C(=O)NNC(=O)COc2ccc(Cl)cc2Cl)c1[N+](=O)[O-]	-1.2	x

Some of the entries so far, with bars between the fields.
Compound | CDC25B-CDK2 inh | TAR Tat displ
O=S(=O)(c1ccccc1)N1N=C2CCCCC2C1(O)C(F)(F)F (stereo not drawn) | -0.68 | x
CCOC(=O)CSc1nc(-c2cccs2)cn1-c1ccc(C)cc1 | -0.8 | x

Continuation.
SMILES	CDC25B-CDK2 inh	TAR Tat displ
COc1cccc(C2c3c(oc4ccccc4c3=O)C(=O)N2c2nnc(C(C)C)s2)c1 (stereo not drawn)	-1.1	-1.6
O=C(C1CCC1)N1CCc2cc(S(=O)(=O)NCCN3CCN(c4ccccc4F)CC3)ccc21	0.14	0.51
COc1ccc(NS(=O)(=O)c2c(C)nc3sc(C)cn3c2=O)cc1Cl	x	-0.57
CCOC(=O)c1csc(NC(=O)c2cc(=O)c3ccccc3o2)n1	-0.54	x
CC(=O)c1ccc(N/N=C(\C(N)=O)C2=NC(C)(C)Cc3ccccc32)cc1	x	0.87
COc1ccc(OC)c(C2NC(=O)c3[nH]nc(-c4ccc(C)cc4)c32)c1 (stereo not drawn)	x	1.4
CN1CCN(C(=O)c2cc(=O)c3cc(Cl)ccc3o2)CC1	0.67	0.98
CC(C)c1ccc(C2c3c([nH][nH]c3=O)CC(C)(O)C2C(=O)OCc2ccccc2)cc1 (stereo not drawn)	-2	1.2
Cc1ccc(C(=O)OCc2cc(=O)n3nc(C4CC4)sc3n2)cc1	x	0.12
COc1ccc(-n2nnnc2C2CCN(S(=O)(=O)c3ccccc3S(C)(=O)=O)CC2)cc1	-2.5	2.1
CC(C)Cn1c(=O)c2sccc2n2c(CCCC(=O)NC3CCCCC3)nnc12	x	0.91
Cc1ccc(S(=O)(=O)N(C)CC(O)Cn2c3ccccc3c3ccccc32)cc1 (stereo not drawn)	0.29	1.1
O=c1oc(-c2ccc(Br)cc2)nc2sc3c(c12)CCC3	0.62	0.31
COC(=O)C1=C(C)Nc2nc3ccccc3n2C1c1sccc1C (stereo not drawn)	-1	0.8
Cc1nc2ccc(S(=O)(=O)NC(CC(C)C)C(=O)N3CCCCC3)cc2s1 (stereo not drawn)	-1.6	-0.65
O=C(COCc1cc(-c2ccco2)on1)NCc1cccs1	x	-0.9
Cn1c(=O)c2c(nc(N3CCCCC3)n2Cc2ccc(Cl)cc2)n(C)c1=O	-0.49	0.17
Cc1cc(=O)[nH]c(SCc2nc3ccccc3n2C)n1	-0.18	0.83
CN(C(=O)c1cc(S(=O)(=O)N2CCCC2)cn1C)C1CCCCC1	x	2.3
O=C1CCN(c2ccccc2)N1	x	2.2
Cc1nn(C(=O)c2cc3c(s2)CCCC3)c(C)c1S(=O)(=O)N1CCc2ccccc2C1	x	-0.15
O=S(=O)(c1c(Cl)sc(Cl)c1Br)N1CCSCC1	-1.8	x
COc1ccc(Cl)cc1NC(=O)CSc1nccn1C	-1.2	x
S=c1[nH]nc(-c2ccc(Cl)cc2Cl)n1-c1cccnc1	0.17	x
CCOc1ccc(S(=O)(=O)Nc2cnc3ccccc3c2)cc1	-0.17	-2.4
CCOC(=O)C(=O)N1N=C(C(F)(F)F)CC1(O)C(C)(C)C (stereo not drawn)	1.4	x
Cc1ccc(C)c(Cn2c(C)c(CNCc3ccc(C)o3)c(C(=O)O)c2C)c1	x	2
CCN1CCN(S(=O)(=O)c2ccc(C(C)(C)C)cc2)CC1	0.22	2.3
O=C(Cc1noc2ccccc12)NCCCN1CCOCC1	-2.1	0.56
COc1ccc(C2=NN(C(=O)CCCC(=O)O)C(c3ccc(Cl)cc3)C2)cc1OC (stereo not drawn)	-0.88	2.5
CC(C)(C)NNC(=S)Nc1cccc(F)c1	-0.3	x
COC(=O)CCCCCNc1n[nH]c(=O)[nH]c1=O	-1.5	x
COC(=O)c1cccc(Nc2nn3c(=O)c4ccc(C(=O)OC)cc4nc3s2)c1	x	1.2
O=C(O)C1CCN(c2ccc3nncn3n2)CC1	0.74	0.71
CCOc1ccc2[nH]c(C3C(=O)c4ccccc4C3=O)cc(=O)c2c1	-1.5	-1.2
COc1cccc(Cn2cccc2C2=NC(CC(C)C)CO2)c1OC (stereo not drawn)	-1.4	-0.16
O=c1c(-c2ccc(Cl)cc2)c(N2CCN(c3ccccc3F)CC2)c1=O	x	-0.43
Cn1c(=O)[nH]c(=O)c2c1nc(SCC(=O)O)n2CCc1ccccc1	-2.4	1.9
COc1ccc(O)c(C2=NN3C(C2)c2cccc(OC)c2OC3c2ccccc2F)c1 (stereo not drawn)	-0.62	-0.38
C1=C(c2ccccc2)CCN(c2nc3ccccc3n3cnnc23)C1	0.64	0.21
O=C(O)CCSc1nc2ccccc2n1-c1ccccc1	-2.7	0.82
CCCc1nnc(NC(=O)Cc2coc3ccc(CC)cc23)s1	-2.4	-0.81
COc1ccc(OC)c(NS(=O)(=O)C2CCS(=O)(=O)C2)c1 (stereo not drawn)	0.02	0.19
O=C(c1noc2c1CCCC2)N1CCCc2ccccc21	x	-0.73
Cc1ccc2c(c1)-c1onc(C(=O)N(C)c3cc(C)ccc3C)c1CO2	x	2.4
CC(=O)Nc1nonc1-c1nnc(SCC(=O)N(C)c2ccccc2)n1C	-1.9	1.2
NCCSSCCN	-2.4	-0.95
COc1ccc(C2=C(C)C(N3CCN(C)CC3)=NS2(=O)=O)cc1	0.34	1.6
COc1ccccc1-c1cc(C(F)(F)F)n2ncc(C(=O)OC(C)C)c2n1	-0.28	1.3
CCOc1ccc(/C=N/NC(=S)Nc2ccc(S(=O)(=O)N3CCCCC3)cc2)cc1	-0.17	x
O=C1c2cccnc2C(=O)N1Cc1ccc(F)cc1S(=O)(=O)Nc1ccc(-c2ccno2)cc1	x	-0.69
COc1ccc(OC)c(-c2cc(C(=O)Nc3sc4c(c3C(N)=O)CCCC4)no2)c1	-1.5	x
CC1=Nc2cc(C(=O)NCC3CCCO3)ccc2Sc2c(C)ccc(C)c21 (stereo not drawn)	-1.2	x
Cc1ccccc1OC1C(=O)N(Cc2ccc3c(c2)OCO3)C1c1ccc2c(c1)OCO2 (stereo not drawn)	0.16	1.8
COc1cc(NC(=O)c2cnccn2)cc(OC)c1	-1.6	x
Cc1nn(CC(=O)N2CCCC2)c(C)c1S(=O)(=O)N1CCCC(C(=O)N2CCc3ccccc32)C1 (stereo not drawn)	x	2.6
COc1ccc(NC(=O)NC(CCC(C)C)c2c(-n3cccc3)sc3c2CCN(C)C3)cc1 (stereo not drawn)	x	0.39

This is a random part of the collection (roughly 0.89% active in at least one column).
